CDC25B CDK2 inh: human CDC25B-CDK2/CyclinA binding inhibition; z-score (no concentration beside the values); HTRF CDC25B-CDK2/CyclinA binding, anti-His/anti-Flag; hits give high values; hit rate 0.72% among 94,000;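 note: score is relative to mean and SD of negative controls; strong numbers were not always called active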
HIV TAR-Tat: HIV-1 TAR-Tat binding disruption; HIV-1 TAR RNA, Tat peptide displacement FRET; hits give high values; z-score (test concentration not listed); hit rate 0.6% among 100,000; AID 1259389;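 note: score is relative to mean and SD of negative controls; some compounds called inactive have numbers as strong as hits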
Starred values were filed as active, the others as inactive; . = not tested or not shown.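 Rule for the calls: active = z-score from 3 up in half or more of its runs; inactive = the rest.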

Start of the data: the first 3 entries, to show the layout:
Results follow in this order: CDC25B CDK2 inh, HIV TAR-Tat
O=C(O)CCc1ccc(-c2ccc(Cl)cc2)n1-c1ccc(C(=O)O)cc1
    -0.82, .
COC1=C(OC)C(=O)C(C/C=C(\C)CC/C=C(\C)CC/C=C(\C)CC/C=C(/C)CC/C=C(\C)CC/C=C(\C)CC/C=C(\C)CC/C=C(\C)CC/C=C(\C)CCC=C(C)C)=C(C)C1=O
    ., -1.1
COc1ccc(OCC(=O)Nc2nn3c(-c4ccco4)nnc3s2)cc1
    0.67, 25*

Main list, from the first entry:
Results follow in this order: CDC25B CDK2 inh, HIV TAR-Tat
O=C(O)CCc1ccc(-c2ccc(Cl)cc2)n1-c1ccc(C(=O)O)cc1
    -0.82, .
COC1=C(OC)C(=O)C(C/C=C(\C)CC/C=C(\C)CC/C=C(\C)CC/C=C(/C)CC/C=C(\C)CC/C=C(\C)CC/C=C(\C)CC/C=C(\C)CC/C=C(\C)CCC=C(C)C)=C(C)C1=O
    ., -1.1
COc1ccc(OCC(=O)Nc2nn3c(-c4ccco4)nnc3s2)cc1
    0.67, 25*
CCCNC(=O)c1sc(-n2[nH]c(C)c(CCC(C)C)c2=O)nc1C
    -1.5, -1.5
CCOc1ccc(N2NC(=O)C(C)(C)C2=O)cc1
    0.21, -0.22
Cc1ccc(C2c3c(oc4ccccc4c3=O)C(=O)N2c2nnc(C(C)C)s2)cc1 (configuration not stated)
    -0.38, -1.1
O=C(NCc1ccco1)C1CCN(c2ccc3cc(S(=O)(=O)N4CCCCC4)ccc3n2)CC1
    ., 0.24
O=c1cc(CN2CCN(c3ncccn3)CC2)nc2sc(C3CCCCC3)nn12
    ., 0.58
O=C(Cn1cnc(S(=O)(=O)N2CCOCC2)c1)Nc1ccc(F)cc1
    ., -0.05
COC(=O)c1ccc(C(=O)OC)c(NC2=NS(=O)(=O)c3ccccc32)c1
    -0.75, 1.3
c1ccc(-n2nnnc2SCCNCc2cccnc2)cc1
    -1.5, 1.6
Cc1ccc(-c2nn3c(C(F)(F)F)nnc3s2)cc1C
    -3.6, -0.64
Cc1cc(C)c2oc(C(=O)Nc3nc(C)c(C(=O)OCC(C)C)s3)cc(=O)c2c1
    -2.2, 2.9
NC1=NC(c2ccc(O)c(O)c2)n2c(nc3ccccc32)N1 (configuration not stated)
    -2.3, 1.3
Cc1sc(-n2cccc2)c(C(C)NC(=O)Nc2cccc(Cl)c2)c1C (configuration not stated)
    0.86, 0.34
CCOC(=O)c1sc2ccccc2c1S(=O)(=O)Nc1ccc2c(c1)OCCO2
    ., -0.86
CCOc1ccc(C2C(C(=O)OC(C)C)C(=O)CC(C)(O)C2C(=O)OC(C)C)cc1 (configuration not stated)
    -0.2, 1.9
O=S(=O)(c1cccc2nsnc12)N1CCc2ccccc21
    -1, .
COc1ccc2nc(-n3nc(C)c4c3NC(=O)CC4c3ccsc3)sc2c1 (configuration not stated)
    ., 1.7
Cc1cc2ccccc2n1-c1ccc(C(=O)N2CCC(C(=O)NC3CCCC3)CC2)s1
    ., 0.81
CCCCC(=O)Nc1cc(=O)n(C)c(=O)n1C
    ., 1.4
COC(=O)c1c(-c2cccs2)csc1NC(=O)c1cccs1
    0.05, -0.58
CN(CC(=O)NCc1cccs1)S(=O)(=O)c1ccc2c(c1)c(=O)n(C)c(=O)n2C
    -0.55, 2.1
CCOC(=O)c1cc2c(C)nccn2c1
    -1.5, .
CSc1cccc(NC(=O)CCS(=O)(=O)c2ccc3c(c2)CC(=O)N3C)c1
    ., 0.34
CC1Cc2ccccc2N1C(=O)CN(C)S(=O)(=O)c1ccc2c(c1)n(C)c(=O)c(=O)n2C (configuration not stated)
    -0.64, 0.61
CC1Sc2ccc(S(=O)(=O)CCC(=O)N(C)Cc3ccco3)cc2NC1=O (configuration not stated)
    ., 2.9
COc1ccc(NNC(N)=S)cc1
    -1.1, .
Cc1noc(-c2ccc(-c3noc(-c4cccc(Cl)c4)n3)cc2)n1
    ., 0.96
O=C(O)CSc1c(-c2ccccc2)c2cc(Cl)ccc2[nH]c1=O
    -1.3, .
Cc1ccc(C(=O)Nc2c(C)nc3ccccn3c2=O)cc1
    ., -0.11
CC1=C(C(N)=O)C(c2ccncc2)n2nc(CCCO)nc2N1 (configuration not stated)
    -0.88, 0.96
CCCCn1c(CN2CCN(c3ccccc3F)CC2)nc2c1c(=O)n(C)c(=O)n2C
    0.97, 0.58
COc1ccc(C2OC(c3ccc(C)nc3)=NN2C(C)=O)cc1OC(C)=O (configuration not stated)
    ., 2.4
Cc1ccc(-n2nnc(-c3nc(-c4ccccc4)no3)c2N)c(C)c1
    ., -0.88
O=C1c2ccccc2C(=O)N1CN1CCC(O)(c2ccc(Cl)cc2)CC1
    -2.7, .
CCOc1ccc(S(=O)(=O)n2nnc3ccccc32)cc1
    -0.5, .
O=C(Nc1ccc2nc3n(c(=O)c2c1)CCCCC3)c1cc(-c2ccco2)nc2ccccc12
    1.2, -0.38
O=C(CSc1nnc2ccc3ccccc3n12)Nc1ccc(Br)cc1
    0.17, 0.84
Cc1cccc(NS(=O)(=O)c2c(C)nc3sccn3c2=O)c1C
    ., -6.3
COc1cc2c(cc1OC)C(C)N(C(=O)c1nn(C)c3c1CSc1ccccc1-3)CC2 (configuration not stated)
    -0.47, 1.3
CCN(CC)S(=O)(=O)c1ccc(NC2=NS(=O)(=O)c3ccccc32)cc1
    -1.7, 0.2
Cc1cc2c3c([nH]c2cc1S(=O)(=O)N1CCN(C2CCCC2)CC1)CC(C)(C)CC3=O
    ., -0.15
O=C(NCc1c(-c2ccc(F)cc2)nc2n1CCS2)c1ccc2c(c1)OCCO2
    ., 0.81
CCCCCc1nn2cc(-c3ccc(OCC)cc3)nc2s1
    0.64, 2
COc1ccc(OC)c(CCNc2nc3ccccc3c3nc(-c4cccnc4)nn23)c1
    -0.84, -0.01
O=C(CCn1nc(-c2ccccc2)ccc1=O)NCCN1CCOCC1
    -1.3, .
COC(=O)CN1C(C(=O)c2ccccc2)=C(OC(=O)c2ccc(F)cc2)c2ccccc2S1(=O)=O
    -0.39, -0.25
C=C(C)Cn1c(CN(C)Cc2ccccc2)nc2c1c(=O)n(C)c(=O)n2C
    -2.5, 0.39
Cc1nc(S(=O)(=O)Nc2cccc(F)c2)cn1C
    ., 1.6

The listing continues.
Results follow in this order: CDC25B CDK2 inh, HIV TAR-Tat
CCn1cc(C2=NOC(C(=O)Nc3ccc(F)cc3F)C2)c(C)n1 (configuration not stated)
    -0.64, -0.2
CC(=O)Nc1ccc(N2C(=O)c3c(C)nc4ccccc4c3C2=O)cc1
    0.1, 2.2
O=S(=O)(Nc1nc2ccccc2nc1N1CCN(c2ccccn2)CC1)c1ccc(Cl)cc1
    -0.93, 1.3
CC(=O)OCC12COC(c3ccc4c(c3)OCO4)C(C(C)=CC1C)C2C (configuration not stated)
    -0.59, 1.4
O=C(c1ccc2c(c1)CCN2S(=O)(=O)c1ccc(Br)cc1)N1CCCCC1
    0.59, 0.33
Fc1ccc(Nc2nnc(Cc3cccnc3)c3ccccc23)cc1Cl
    -1.3, 0.59
c1ccc(-c2cn(-c3ccccc3)c3ncnc(N4CCCCC4)c23)cc1
    -1.4, .
COc1ccc(S(=O)(=O)c2c(SC)nn(Cc3cccc(F)c3)c2N)cc1
    ., -0.49
O=C1CN(C(=O)c2ccc(F)cc2)C(c2ccc(F)cc2)c2cc(Br)ccc2N1 (configuration not stated)
    0.59, .
NC(CC(=O)O)c1ccc2c(c1)OCO2 (configuration not stated)
    0.55, .
CCCC(=O)N(c1ccc(OCC)cc1)C1C=CS(=O)(=O)C1 (configuration not stated)
    -0.68, -0.03
COc1ccc(CNc2oc(-c3ccc(COc4ccc(Cl)cc4)o3)nc2C#N)cc1
    1.5, -0.68
O=C(Nc1nnc2n1CCS2)C1CC1
    ., 0.53
CCCCCOC(=O)CSc1ncnc2c1sc1nc3c(cc12)COC(C)(C)C3
    ., 0.14
COc1ccc(-c2cc(=O)c3ccc(OC)cc3o2)cc1
    -1.4, 0.82
COc1ccc(C2CC(=O)N3CN(CCC(C)C)CSC3=C2C#N)cc1 (configuration not stated)
    -1.2, 1.5
O=C(Nc1cccc2cccnc12)c1ccc([N+](=O)[O-])o1
    -1.7, 1.7
CC(=O)N1c2ccc(S(=O)(=O)N3CCC(c4ccncc4)CC3)cc2CC1C (configuration not stated)
    ., 1.4
CN(C)CCSC(=S)NC1CCCCCCC1
    0.99, .
Cc1cccn2c(=O)c(C(=O)NC(C)c3ccccc3)c(O)nc12 (configuration not stated)
    -2.1, -1.4

Some values from the entries so far.
HIV TAR-Tat result of Cc1cccn2c(=O)c(C(=O)NC(C)c3ccccc3)c(O)nc12 (configuration not stated) is entered as -1.4
HIV TAR-Tat result of CCCC(=O)N(c1ccc(OCC)cc1)C1C=CS(=O)(=O)C1 (configuration not stated) is entered as -0.03

(cont.)
Results follow in this order: CDC25B CDK2 inh, HIV TAR-Tat
COCCCNC(=O)C1CCN(c2ncnc3onc(C)c23)CC1
    ., 1.4
CCOCCn1c(CN2CCN(c3ccc(F)cc3)CC2)nc2c1c(=O)n(C)c(=O)n2C
    -2.5, 1.6
Fc1ccc(-c2nnc3sc(-c4ccncc4)nn23)cc1
    -0.89, 1.5
CSC(=CC(=O)c1nccs1)SC
    -1.5, .
COc1ccc(Cl)cc1NS(=O)(=O)c1ccc(-c2cc(C)no2)s1
    ., -0.3
COc1ccc(NC(=O)CSc2nnc(Cc3cccn3C)n2-c2ccc(OC)cc2)cc1
    -2.2, .
CCCc1nn2c(=O)cc(CSc3nc(-c4ccc(C)cc4)nc4cc(=O)[nH]n34)nc2s1
    ., 0.2
CCc1nnc2c(Nc3ccc(F)cc3C)nc3ccccc3n12
    -3.3, 0.63
Cc1cc(C)nc(NC(=S)c2ccc(NC(=O)/C=C/C(=O)O)cc2)n1
    -1.2, .
CC(=O)N1c2ccccc2NC2=C(C(=O)CC(c3ccccc3)C2)C1c1ccc2c(c1)OCO2 (configuration not stated)
    0.99, .

Reprinted from the part before: two entries, followed by the next part.
Results follow in this order: CDC25B CDK2 inh, HIV TAR-Tat
Cc1cc(C)nc(NC(=S)c2ccc(NC(=O)/C=C/C(=O)O)cc2)n1
    -1.2, .
CC(=O)N1c2ccccc2NC2=C(C(=O)CC(c3ccccc3)C2)C1c1ccc2c(c1)OCO2 (configuration not stated)
    0.99, .
CC1CCN(S(=O)(=O)c2ccc(Cl)cc2)CC1
    -2, 3.8
O=S(=O)(Nc1ncccn1)c1ccc(F)cc1
    -0.67, 0.99
COc1ccc(C2CC(=O)C3=C(C2)NC(C)=C(C(=O)OCC(C)C)C3c2ccccc2OC)cc1 (configuration not stated)
    ., 1.7
COc1ccc(/C(O)=C2\C(=O)C(=O)N(Cc3cccnc3)C2c2ccc(O)c(OC)c2)cc1 (configuration not stated)
    -0.42, -0.09
CCCCCCCCCCCC(=O)Nc1nccs1
    -2.4, .
O=C(CN1C(=O)CSc2ncccc21)NCCCSC1CCCCC1
    -1.1, -1.1
CCOCCCNC(=O)c1cc(Cc2c(C)n[nH]c2C)c(N2CCOCC2)s1
    ., -0.09
Cc1[nH]nc(-n2cnnc2)c1NC(=O)C(C)(C)C
    -3.1, -0.6
Cc1ccc(Cn2c(=O)n(Cc3nc(-c4ccccc4)no3)c(=O)c3cc4c(cc32)OCO4)cc1
    ., -1.5
CCOc1ccc(N2C(=O)c3ccccc3C2Nc2cc(F)ccc2F)cc1 (configuration not stated)
    -2, -0.77
CC1CCc2c(cnc3c(C(=O)N4CCN(C)CC4)cnn23)C1 (configuration not stated)
    ., -0.14
COc1cccc(CN2COc3ccc4c(oc(=O)c5ccccc54)c3C2)c1
    -0.31, 1.2
Cc1nn(C(=O)c2cccs2)c(C)c1S(=O)(=O)N1CCc2ccccc2C1
    ., -1.7
O=C1COc2cc(S(=O)(=O)N3CCc4ccccc43)c(Cl)cc2N1
    ., 1.5
NC(=O)c1ccc(-c2nc(-c3ccc4c(c3)OCCO4)c(-c3ccccn3)[nH]2)cc1
    ., 1.1
CC(C)(C)OC(=O)NCCNc1ccc(C(F)(F)F)cc1[N+](=O)[O-]
    -1.6, .
Cc1[nH]c2ccccc2c1C(=O)CSc1nnc(-c2ccco2)n1C
    1.1, -0.35
O=S1(=O)N=CNc2ccc(S(=O)(=O)N3CCN(c4ccc(Cl)cc4)CC3)cc21
    ., -0.4
CCOC(=O)C(NC(C)=O)(OCc1ccc(F)cc1)C(F)(F)F (configuration not stated)
    -1.9, .
COC(=O)c1cc(NC(=O)c2cc(I)ccc2Cl)cc(C(=O)OC)c1
    -1.9, .
N#Cc1c(NC(=O)C2CC(=O)OC23CCCCC3)sc2c1CCCCC2 (configuration not stated)
    -0.05, 0.83
Cc1ccc(NC(=O)c2nccnc2C(=O)O)cc1
    -0.79, .
O=C(OCc1cc(=O)n2nc(-c3cccs3)sc2n1)c1ccco1
    ., 0.49
FC(F)(F)c1cc(-c2nnc(N3CCCC3)o2)cc(C(F)(F)F)c1
    0.35, .
CCc1ccc(C2N3CC4(C)CN2CC(C)(C3)C4=O)cc1 (configuration not stated)
    1.6, 0.99
COCCOC(=O)C1=C(C)NC2=C(C(=O)C(C(=O)OC)C(C)C2)C1c1ccc(C)cc1 (configuration not stated)
    0.74, 1.3
Cc1cccn2cc(-c3cccc(S(=O)(=O)N4CC(C)CC(C)C4)c3)nc12 (configuration not stated)
    0.26, 1.6
O=C1c2cnccc2CN1c1ccc(F)cc1F
    0.5, 0.96
CNc1nc2nonc2nc1NC
    -0.05, 1.2
O=C(NCCCSCc1ccco1)Nc1ccccc1F
    -0.58, -0.76
CCCC1c2ccc(C)n2CCN1C(=O)Nc1cc(OC)cc(OC)c1 (configuration not stated)
    0.74, -9
CC1(C)N=C(c2ccc(Cl)cc2)C(=O)N1
    -0.73, .
O=C(CN1C(=O)c2ccccc2S1(=O)=O)Nc1ccccc1Br
    -0.44, .
